Env fusion inh = HIV envelope-mediated fusion inhibition; HeLa-JRFL Env/CEM21 cell fusion, luciferase; inhibition, % at 12.3 µM; AID 651610; 360,000 tested, 1.1% active;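 active = mean replicate inhibition score of at least 50 and every replicate individually at or above 50; inconclusive = only one of the two criteria met; inactive = mean below 50 and not all replicates reaching 50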;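 note: 0% = plate neutral controls and 100% = maraviroc near 300 nM; one replicate is shown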
Active calls of the source: *; ? = inconclusive; [ ] = another dose, or the depositor's remark. The list is partial (hit frequency here may not be typical).

Cc1noc(C)c1NC(=O)Nc1cccc2c1O[C@@H](CN(C)S(=O)(=O)c1ccccc1)[C@H](C)CN([C@@H](C)CO)C2=O
- Env fusion inh: 3[16.7 µM]
CN(C)CC(=O)Nc1ccc2c(c1)[C@H]1C[C@H](CC(=O)N3CCc4ccccc4C3)O[C@H](CO)[C@H]1O2
- Env fusion inh: 0[16.7 µM]
COC(=O)[C@]12C[C@H](CC(=O)NCc3cccc(C(F)(F)F)c3)C(=O)N(CCc3ccc(OC)c(OC)c3)C1=C[C@H](C(C)(C)C)O[C@@H]2C
- Env fusion inh: -10
O=C(C[C@@H]1C[C@H]2c3cc(NC(=O)NC4CCCC4)ccc3O[C@H]2[C@@H](CO)O1)NCc1ccncc1
- Env fusion inh: 9[16.7 µM]
COCCNC(=S)N(C)[C@H]1C[C@H]2c3[nH]c4c(-c5ccccc5)cccc4c3CCN2C[C@H]1[C@H](C)O
- Env fusion inh: 5
COC(=O)C[C@H]1C[C@H]2c3cc(NC(=O)CN(C)C)ccc3O[C@H]2[C@H](CO)O1
- Env fusion inh: -9[16.7 µM]
CNC(=O)C[C@H]1CC[C@H]2[C@@H](COc3ccc(NC(=O)Nc4cc(C)cc(C)c4)cc3C(=O)N2C)O1
- Env fusion inh: 4[16.7 µM]
CO[C@H]1CN(C)C(=O)c2cc(NC(=O)Nc3ccc(Cl)c(Cl)c3)ccc2OC[C@H](C)NC[C@@H]1C
- Env fusion inh: 3[16.7 µM]
CO[C@@H]1CN(C)C(=O)c2cc(NC(=O)c3cc(C)on3)ccc2OC[C@H](C)N(CC2CC2)C[C@@H]1C
- Env fusion inh: 12[16.7 µM]
COCC(=O)Nc1ccc2c(c1)C(=O)N(C)C[C@@H](OC)[C@@H](C)CN(C(=O)Cc1cccnc1)[C@H](C)CO2
- Env fusion inh: 13[16.7 µM]
CCNC(=O)c1cc2c(c(-c3cccc(-c4cccc(C(=O)N(C)C)c4)c3)n1)[C@H](CCO)N([S@@](=O)C(C)(C)C)C2
- Env fusion inh: -12[16.7 µM]
COc1ccc2c3c(n(C)c2c1)[C@@H](CO)NCC31CN(CC2CC2)C1
- Env fusion inh: -4[16.7 µM]
C[C@H](O)C#Cc1cnc2c(c1)C(=O)N([C@@H](C)CO)C[C@@H](C)[C@@H](CN(C)C(=O)Cc1ccccn1)O2
- Env fusion inh: 9[16.7 µM]
CCC(=O)Nc1ccc2c(c1)OC[C@H](C)N(C(=O)COC)C[C@H](C)[C@@H](OC)CN(C)C2=O
- Env fusion inh: -14[16.7 µM]
CCS(=O)(=O)Nc1ccc2c(c1)C(=O)N(C)C[C@@H](OC)[C@H](C)CN(Cc1ccccn1)[C@@H](C)CO2
- Env fusion inh: -1[16.7 µM]

C[C@H](CO)N1C[C@H](C)[C@H](CN(C)Cc2ccccc2C(F)(F)F)OCc2cnnn2CCCC1=O
- Env fusion inh: 20[16.7 µM]
COc1ccc(S(=O)(=O)Nc2ccc3c(c2)[C@@H]2C[C@H](CC(=O)NCC4CC4)O[C@@H](CO)[C@@H]2O3)cc1
- Env fusion inh: -18[16.7 µM]
COc1ccc(NC(=O)N2CC3(C2)CN(C(=O)CN2CCOCC2)[C@@H](CO)c2[nH]c4cc(OC)ccc4c23)cc1
- Env fusion inh: -6[16.7 µM]
CC(C)[C@H](NC(=O)c1ccccc1)C(=O)N1CCC[C@H]1C(=O)NCc1ccccc1
- Env fusion inh: -7
CCC(=O)Nc1ccc2c(c1)C(=O)N(C)C[C@H](OC)[C@@H](C)CN(CC1CCOCC1)[C@H](C)CO2
- Env fusion inh: -18[16.7 µM]
COc1ccc(NC(=O)N(C)C[C@@H]2OCc3ccccc3-c3c(n(C)c4ccccc34)C(=O)N([C@@H](C)CO)C[C@@H]2C)c(OC)c1
- Env fusion inh: -20[16.7 µM]
C=CCN1CC(COCc2ccccc2)OCCS1(=O)=O (stereo not drawn)
- Env fusion inh: -2
O=C(O)C(=Cc1ccc([N+](=O)[O-])cc1)c1ccccc1
- Env fusion inh: -8
CNC[C@@H]1OCCCC[C@H](C)Oc2ccc(NS(=O)(=O)c3cccs3)cc2C(=O)N([C@H](C)CO)C[C@@H]1C
- Env fusion inh: 35[16.7 µM]
CCCC#Cc1ccc2c(c1)O[C@H](CN(C)C(=O)Nc1ccccc1F)[C@@H](C)CN([C@@H](C)CO)S2(=O)=O
- Env fusion inh: -30[16.7 µM]
CC(C)CC#Cc1cnc2c(c1)C(=O)N([C@H](C)CO)C[C@H](C)[C@@H](CN(C)C(=O)c1cccc(F)c1)O2
- Env fusion inh: -8[16.7 µM]
CO[C@H]1CN(C)C(=O)c2cc(C#N)ccc2OC[C@H]2O[C@H](CC[C@@H]2OC)CCN(C)C(=O)[C@H]1C
- Env fusion inh: -13[16.7 µM]
O=C(O)C1CCCN1C(=O)c1cccc(Cl)c1 (stereo not drawn)
- Env fusion inh: -16
Cc1ccccc1S(=O)(=O)N1C[C@@H](O)COC[C@@H]2O[C@H](CC(=O)O)CC[C@H]21
- Env fusion inh: -6[16.7 µM]
COc1ccc2c3c([nH]c2c1)[C@@H](CO)N(C(=O)CN1CCOCC1)CC31CCN(C(=O)NC(C)C)CC1
- Env fusion inh: -9[16.7 µM]

CCCNC(=O)Nc1ccc2c(c1)C(=O)N(C)C[C@@H](OC)[C@@H](C)CN(C(=O)c1ccccc1F)[C@H](C)CO2
- Env fusion inh: -2[16.7 µM]
COc1ccc(CN(C)C[C@@H]2Oc3ccc(NC(=O)NC4CCCCC4)cc3CC(=O)N([C@H](C)CO)C[C@@H]2C)cc1
- Env fusion inh: -34[16.7 µM]
CCCNC(=O)[C@H]1[C@H](CO)[C@H]2Cn3c(ccc(-c4ccncc4)c3=O)[C@@H]1N2Cc1ccccc1F
- Env fusion inh: -29[16.7 µM]
CN1C(=O)c2cc(NC(=O)Nc3ccccc3)ccc2OC[C@@H]2O[C@H](CC(=O)O)CC[C@@H]21
- Env fusion inh: 4[16.7 µM]
CN(C)CC(=O)N1[C@@H]2Cn3c(ccc(-c4ccccc4)c3=O)[C@H]1[C@@H](C(=O)N1CCN(C)CC1)[C@@H]2CO
- Env fusion inh: 6[16.7 µM]
C[C@H]1CN([C@@H](C)CO)C(=O)Cc2cc(NC(=O)Nc3ccc(C(F)(F)F)cc3)ccc2O[C@H]1CN(C)S(C)(=O)=O
- Env fusion inh: -3[16.7 µM]
COC(=O)C[C@H]1CC[C@@H](NS(=O)(=O)c2ccccc2F)[C@H](CO)O1
- Env fusion inh: -9[16.7 µM]
C[C@H]1CN([C@@H](C)CO)C(=O)CCCn2nncc2CO[C@H]1CN(C)Cc1ccc2c(c1)OCCO2
- Env fusion inh: -26[16.7 µM]
CN(C)c1ccc2c(c1)[C@@H]1C[C@H](CC(=O)NCc3cccc(F)c3)O[C@H](CO)[C@@H]1O2
- Env fusion inh: 16[16.7 µM]
COCC(=O)Nc1ccc2c(c1)C(=O)N(C)C[C@@H](OC)[C@H](C)CN(Cc1cc(F)ccc1F)[C@@H](C)CO2
- Env fusion inh: -3[16.7 µM]
COc1ccccc1C#Cc1ccc([C@@H]2[C@H](C#N)N(C(=O)C3CCCC3)[C@H]2CO)cc1
- Env fusion inh: 6[16.7 µM]
CCCNC(=O)N1C[C@H](C)[C@@H](OC)CN(C)C(=O)c2ccc(NC(=O)CCC)cc2OC[C@@H]1C
- Env fusion inh: 10[16.7 µM]
COc1cccc(NC(=O)Nc2ccc3c(c2)C(=O)N(C)C[C@@H](OC)[C@H](C)CN(CCC(F)(F)F)[C@H](C)CO3)c1
- Env fusion inh: -4[16.7 µM]
C[C@H](CO)N1C[C@H](C)[C@H](CN(C)C(=O)Nc2ccc3c(c2)OCO3)Oc2ccc(NS(=O)(=O)c3ccc(F)cc3)cc2CC1=O
- Env fusion inh: -5[16.7 µM]
CC=Cc1ccc2n(c1=O)C[C@@H]1[C@@H](CO)[C@H](C(=O)OC)N(CCc3ccccc3)[C@H]21 (mixture of isomers)
- Env fusion inh: -12[16.7 µM]

Another view of part of the listing above:
| Molecule | Env fusion inh |
| --- | --- |
| COc1cccc(NC(=O)Nc2ccc3c(c2)C(=O)N(C)C[C@@H](OC)[C@H](C)CN(CCC(F)(F)F)[C@H](C)CO3)c1 | -4[16.7 µM] |
| CCCNC(=O)[C@H]1[C@H](CO)[C@H]2Cn3c(ccc(-c4ccncc4)c3=O)[C@@H]1N2Cc1ccccc1F | -29[16.7 µM] |
| COc1ccc(CN(C)C[C@@H]2Oc3ccc(NC(=O)NC4CCCCC4)cc3CC(=O)N([C@H](C)CO)C[C@@H]2C)cc1 | -34[16.7 µM] |
| CCCNC(=O)N1C[C@H](C)[C@@H](OC)CN(C)C(=O)c2ccc(NC(=O)CCC)cc2OC[C@@H]1C | 10[16.7 µM] |

Continued.
COc1ccc2c3c([nH]c2c1)[C@@H](CO)N(C(=O)c1ccc(F)cc1)CC31CN(C(=O)Nc2cccc(F)c2)C1
- Env fusion inh: 11[16.7 µM]
COc1cccc(NC(=O)N(C)C[C@H]2OCc3ccccc3-c3c(n(C)c4ccccc34)C(=O)N([C@@H](C)CO)C[C@@H]2C)c1
- Env fusion inh: 55*[16.7 µM]
Cc1noc(C)c1NC(=O)Nc1ccc2c(c1)C(=O)N([C@H](C)CO)C[C@H](C)[C@H](CN(C)C(=O)Nc1ccccc1)O2
- Env fusion inh: -30[16.7 µM]
Cc1noc(C)c1NC(=O)Nc1ccc2c(c1)C(=O)N(C)[C@@H]1CC[C@@H](CC(=O)N[C@@H]3CCN(Cc4ccccc4)C3)O[C@@H]1CO2
- Env fusion inh: -18[16.7 µM]
CC(C)NC(=O)Nc1ccc2c(c1)C(=O)N([C@@H](C)CO)C[C@@H](C)[C@H](CN(C)C(=O)NC(C)C)OCCCC[C@@H](C)O2
- Env fusion inh: -29[16.7 µM]
Cc1ccc2nc(-c3ccc(Cl)cc3)c(Cc3ccsc3)n2c1
- Env fusion inh: -55
Cc1ccc(S(=O)(=O)N(C)C[C@H]2Oc3ccc(NS(=O)(=O)c4cn(C)cn4)cc3CC(=O)N([C@H](C)CO)C[C@H]2C)cc1
- Env fusion inh: 6[16.7 µM]
CCCNC(=O)Nc1ccc2c(c1)OC[C@@H](C)N(Cc1cccnc1)C[C@@H](C)[C@H](OC)CN(C)C2=O
- Env fusion inh: 8[16.7 µM]
CNC[C@@H]1OCCCC[C@H](C)Oc2ccc(NC(=O)C3CCCCC3)cc2C(=O)N([C@H](C)CO)C[C@@H]1C
- Env fusion inh: -3[16.7 µM]
C[C@H](CO)N1C[C@H](C)[C@H](CN(C)CC2CC2)OCCCC[C@H](C)Oc2ccc(NC(=O)Nc3ccc(F)cc3)cc2C1=O
- Env fusion inh: 26[16.7 µM]
CO[C@@H](C(=O)N(C)C[C@@H]1OCc2ccccc2-c2ccccc2C(=O)N([C@H](C)CO)C[C@@H]1C)c1ccccc1
- Env fusion inh: -2[16.7 µM]
COc1ccc([Si](C)(C)[C@@H]2[C@@H](CCO)O[C@]3(C(=O)N(Cc4cccc(N5CCCCC5=O)c4)c4ccccc43)[C@H]2C)cc1
- Env fusion inh: -10[16.7 µM]
COc1ccc(CN2C[C@H](O)COC[C@@H]3O[C@H](CC(=O)N(C)C)CC[C@H]32)cc1
- Env fusion inh: -9[16.7 µM]
C[C@H]1CCCCO[C@H](CN(C)CC2CC2)[C@@H](C)CN([C@@H](C)CO)C(=O)c2cc(NC(=O)C3CCCCC3)ccc2O1
- Env fusion inh: -1[16.7 µM]
Cc1ccc(-c2cnc3c(c2)C(=O)N([C@@H](C)CO)C[C@@H](C)[C@@H](CN(C)S(C)(=O)=O)O3)cc1
- Env fusion inh: 22[16.7 µM]

CCc1c(-c2ccc(Cl)cc2)ncn1CCc1ccccc1OC
- Env fusion inh: ?
Cc1noc(C)c1NC(=O)Nc1ccc2c(c1)C(=O)N([C@@H](C)CO)C[C@@H](C)[C@@H](CN(C)S(=O)(=O)c1ccc(Cl)cc1)OCCCC[C@H](C)O2
- Env fusion inh: -26[16.7 µM]
CO[C@@H]1CC[C@@H]2CCN(C)C(=O)[C@H](C)N(C)C(=O)c3cccc(C#N)c3OC[C@@H]1O2
- Env fusion inh: 1[16.7 µM]
O=C1NC(Cc2ccccc2)c2nc3cc(Cl)ccc3c(=O)n2-c2cc(Cl)ccc21 (stereo not drawn)
- Env fusion inh: 27
C/C=C/c1ccc2c(c1)O[C@H](CN(C)C(=O)Cc1cccnc1)[C@@H](C)CN([C@H](C)CO)S2(=O)=O
- Env fusion inh: -15[16.7 µM]
CO[C@H]1CN(C)C(=O)c2cc(C#N)ccc2OC[C@H]2O[C@@H](CC[C@@H]2OC)CCN(C)C(=O)[C@H]1C
- Env fusion inh: 9[16.7 µM]
O=C(NCC1CC1)[C@@H]1[C@@H](CO)[C@@H]2Cn3c(ccc(C4=CCCC4)c3=O)[C@@H]2N1Cc1ccccc1F
- Env fusion inh: 0[16.7 µM]
COc1cccc(S(=O)(=O)Nc2ccc3c(c2)OC[C@H](C)N(C(=O)Cc2cccnc2)C[C@H](C)[C@@H](OC)CN(C)C3=O)c1
- Env fusion inh: -9[16.7 µM]
CCC(=O)Nc1ccc2c(c1)C(=O)N(C)[C@@H]1CC[C@@H](CC(=O)N3CCc4ccccc4C3)O[C@H]1CO2
- Env fusion inh: 2[16.7 µM]
CCCNC(=O)N1[C@@H]2Cn3c(ccc(-c4ccccc4OC)c3=O)[C@H]1[C@@H](C(=O)NCC)[C@@H]2CO
- Env fusion inh: 0[16.7 µM]
CCCC(=O)N1CC2(CN(C(=O)Nc3cccc(F)c3)C2)c2c(n(C)c3cc(OC)ccc23)[C@@H]1CO
- Env fusion inh: -6[16.7 µM]
COC(=O)C1=C(C)N(Cc2ccccc2C(F)(F)F)C(=NCc2ccccc2C(F)(F)F)NC1c1ccc(C(F)(F)F)cc1 (stereo not drawn)
- Env fusion inh: 3
C[C@@H]1CN([C@@H](C)CO)S(=O)(=O)c2ccc(-c3cccnc3)cc2O[C@@H]1CN(C)C(=O)C1CC1
- Env fusion inh: 12[16.7 µM]
COc1ccccc1CNC(=O)C[C@@H]1CC[C@@H]2[C@H](COC[C@@H](O)CN2C(=O)Nc2ccc(F)cc2)O1
- Env fusion inh: 13[16.7 µM]
COc1ccc2c3c([nH]c2c1)[C@@H](CO)N(C(C)=O)CC31CN(C(=O)Nc2ccc(F)cc2)C1
- Env fusion inh: 31[16.7 µM]
COc1cc(O)c2c(c1)oc(=O)c1c3cc(O)c(O)cc3oc21
- Env fusion inh: -12[16.7 µM]
CO[C@H]1CN(C)C(=O)c2ccc(NC(C)=O)cc2OC[C@H](C)N(Cc2cncnc2)C[C@H]1C
- Env fusion inh: -8[16.7 µM]
